# MPTP inh: inhibitors of mitochondrial permeability transition pore; 1.4% of 360,000 active; AID 602449; inhibition, % at 10 µM; isolated mouse mitochondria, Ca2+ swelling absorbance, 30 min;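 active = inhibition of 50% or more, scaled per plate between neutral and stimulator controls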;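 also: 0% = DMSO wells given calcium and 100% = 1 mM EGTA wells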
# SENP8 block: inhibitors of human SENP8 protease | inhibition, % at 20 µM | Q96LD8 | recombinant SENP8, Nedd8 substrate fluorescence | 0.64% of 360,000 active; in the data active = inhibition mostly above about 40%, no sharp cut-off; inactive = mostly below about 27%
# Target sequence (Q96LD8 whole entry, looked up): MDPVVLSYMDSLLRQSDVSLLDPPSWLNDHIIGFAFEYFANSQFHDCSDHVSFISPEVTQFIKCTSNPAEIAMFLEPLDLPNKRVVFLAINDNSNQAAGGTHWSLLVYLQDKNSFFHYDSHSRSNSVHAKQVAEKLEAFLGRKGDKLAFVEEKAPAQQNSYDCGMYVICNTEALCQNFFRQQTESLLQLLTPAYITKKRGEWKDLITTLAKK
# GRIN3A LBD mod: modulates the human NR3A ligand-binding domain; 2.5% of 340,000 active; NR3A LBD differential scanning fluorimetry, Tm shift; 0% = protein alone, 100% = glycine-bound protein; Tm shift relative to glycine control, % at 25 µM;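 active = melting temperature shift of at least 10% of the positive control shift, at one fixed dose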
# PfGluPho inh: PfG6PD (Plasmodium falciparum) enzyme inhibition; inhibition, % at 20 µM; AID 504690; PfGluPho enzyme, NADPH resazurin-diaphorase fluorescence; 0.78% of 350,000 active;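 active = inhibition reaching at least a set limit at 20 µM in the primary screen, cut at about 59% in these data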;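 also: 0% = DMSO wells with substrate and 100% = DMSO wells lacking glucose-6-phosphate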
# ATG4B inhibitor: ATG4B (human) cysteine protease inhibition; ATG4B cleavage of LC3-PLA2, NBD-HPC fluorescence, 1 h; Q9Y4P1; inhibition, % at 8.33 µM; 0.51% of 340,000 active; in the data active = inhibition above about 40%
# Target sequence (Q9Y4P1 whole entry, looked up): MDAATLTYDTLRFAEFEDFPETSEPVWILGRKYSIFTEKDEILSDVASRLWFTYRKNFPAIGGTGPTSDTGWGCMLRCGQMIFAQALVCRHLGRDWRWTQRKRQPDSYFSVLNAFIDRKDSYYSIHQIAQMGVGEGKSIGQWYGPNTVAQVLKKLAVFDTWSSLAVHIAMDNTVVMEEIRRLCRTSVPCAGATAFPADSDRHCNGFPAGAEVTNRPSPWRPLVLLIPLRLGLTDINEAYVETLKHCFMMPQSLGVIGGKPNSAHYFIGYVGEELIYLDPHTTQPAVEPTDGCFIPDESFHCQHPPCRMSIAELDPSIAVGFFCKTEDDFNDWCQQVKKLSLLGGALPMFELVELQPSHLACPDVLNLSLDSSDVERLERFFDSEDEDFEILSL
# HKDC1 inh: HKDC1 (human) hexokinase inhibition; Q2TB90; inhibition, % at 20 µM; 0.16% of 340,000 active; recombinant HKDC1, G6PDH/diaphorase resazurin coupled fluorescence;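 active = inhibition above about 35% when tested at 20 µM, limit read from the data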;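 also: plate controls were DMSO wells with enzyme for no effect and DMSO wells lacking enzyme for full effect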
#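 Test system: Recombinant HKDC1 (HK5) hexokinase enzyme, produced in-house | Input: HKDC1 at 5 µg/mL | Buffer or medium: Tris pH 8.0 buffer with MgCl2, Tween-20, BSA, BME | Schedule: 90 min reaction incubation at room temperature, dark | Technique: Resazurin-to-resorufin fluorescence via G6PDH and diaphorase coupling, 525/613 nm | Controls: DMSO wells with and without enzyme mix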
# * hit, by the source's call. Only part of the results is shown; the hit share may differ from the screen's.
# Start of the listing, in advance (2 entries):
SMILES,MPTP inh,SENP8 block,GRIN3A LBD mod,PfGluPho inh,ATG4B inhibitor,HKDC1 inh
CN(c1ccccc1)S(=O)(=O)c1ccc(C(=O)OCC(=O)NC(N)=O)cc1,0.4,26,1,-9,-7,-9
COc1ccc(/C=N/NC(=O)c2ccc(NS(=O)(=O)c3cccs3)cc2)cc1,-0.2,-134,3,-15,-7,-2

# The list itself, from the first entry:
SMILES,MPTP inh,SENP8 block,GRIN3A LBD mod,PfGluPho inh,ATG4B inhibitor,HKDC1 inh
CN(c1ccccc1)S(=O)(=O)c1ccc(C(=O)OCC(=O)NC(N)=O)cc1,0.4,26,1,-9,-7,-9
COc1ccc(/C=N/NC(=O)c2ccc(NS(=O)(=O)c3cccs3)cc2)cc1,-0.2,-134,3,-15,-7,-2
C/C(=N\NC(=O)CCC(=O)NCc1ccccc1)c1ccc([N+](=O)[O-])cc1,-0.2,11,2,15,0,1
O=C(Nc1ccc(S(=O)(=O)N2CCOCC2)cc1)c1ccc(Cl)s1,8.4,-15,35*,12,-31,-2
CCOc1ccc(-c2cn3ccccc3n2)cc1[N+](=O)[O-],-1.3,-8,-5,48,5,7
CC(Sc1n[nH]c(-c2cccs2)n1)C(=O)N1CCCC1 (configuration not stated),-1.4,-5,-1,9,-5,-7
CCOC(=O)c1cc2ccc3ccccc3c2oc1=O,1.1,-300,7,4,-5,4
O=C(/C=C/c1cn(-c2ccccc2)nc1-c1cccs1)NCCN1CCOCC1,-0.1,-441,-1,20,-20,0
Cc1csc(NC(=O)c2cccc([N+](=O)[O-])c2C(=O)O)n1,-0.5,12,-2,-2,-5,0
CCOC(=O)C1CCN(C(=O)c2ccc3c(c2)NC(=O)/C(=C\c2ccc(C)cc2)S3)CC1,-1.6,-42,-7,19,-8,4
CCOc1ccc(-n2c(SCC(=O)NC)nnc2-c2ccco2)cc1,0.2,6,0,-5,-5,1
Nc1c(Cl)cc(C2=NCCn3c2c2ccccc2[n+]3[O-])cc1Cl,-2.1,11,0,-1,-7,-3
COc1ccc(NC(=S)NC(NC(=O)c2cccc(Cl)c2)C(Cl)(Cl)Cl)c([N+](=O)[O-])c1 (configuration not stated),92*,-14,13*,10,12,3
COC(=O)C1=NN(c2cccc(C)c2)C2C(=O)N(c3ccccc3OC)C(=O)C12 (configuration not stated),0.5,-398,4,9,-14,-6
COc1ccc(C2NC(c3ccc(OC)c(OC)c3OC)C(C)C(=O)C2C)c(OC)c1OC (configuration not stated),-0.2,16,3,-5,-11,2
CCCN(CCC)C(=S)NC(=O)c1ccc(-c2ccccc2)cc1,1.6,12,-2,-3,9,-48
COc1ccccc1NC(=O)c1cnc(SCC(=O)NCC2CCCO2)n(C)c1=O (configuration not stated),-0.9,-48,-1,5,-6,0
Cc1ccc(NC(=O)c2cc(S(=O)(=O)N3CCOCC3)c(Br)s2)cc1,0.6,15,-7,-3,-14,-5
NC(=O)c1ccc(CSc2nc3ccccc3s2)cc1,-0.1,4,-1,-12,51*,2
Cc1cc(O)c(NC(=O)c2ccc(Br)o2)cc1C,4.1,20,-2,13,2,8
N#Cc1ccccc1COC(=O)c1cc(=O)c2ccccc2o1,0.3,5,1,-1,-7,-4
C=CCn1c(COc2ccc(Cl)cc2)nnc1SCC(=O)Nc1ccc(S(N)(=O)=O)cc1,1.5,12,-20,6,-17,-11
C=CCn1c(CNC(=O)c2ccccc2F)nnc1SCC(=O)N1CCOCC1,-0.5,7,-3,2,-3,-4
Cc1cc([N+](=O)[O-])cc2c1NC(=O)C2(O)N1CCCC(C)C1 (configuration not stated),1.0,12,0,-1,-3,6
N#Cc1cc2cc3c(cc2nc1NCCNC(=S)NCCCN1CCOCC1)OCO3,-2.8,-438,-1,8,-6,-11
Cc1ccc(-c2cc3nc(-c4ccc(Br)cc4)cc(N)n3n2)cc1,10,-419,39*,-5,24,8
O=C(Nc1ccc2oc(=O)ccc2c1)c1ccc(-c2cccc(Cl)c2)o1,14,-480,29*,-3,5,-1
O=C(/C=C/NNC(=O)c1ccccc1)c1ccc([N+](=O)[O-])cc1,8.8,37,-8,32,-4,6
Cc1ccc(C(=O)NNC(=O)c2ccccc2-n2cccc2)cc1,-4.3,-3,0,-13,-1,-9
CC(=O)c1c(C)[nH]c(C(=O)N2c3ccccc3CC2C)c1C (configuration not stated),0.4,6,0,1,0,-5
COc1ccc(Nc2nc(C)cc(C)c2C(N)=O)cc1OC,-1.9,12,-1,-21,3,7
Cc1c(OC(C)C(=O)N2C[C@H]3C[C@@H](C2)c2cccc(=O)n2C3)ccc2c3c(c(=O)oc12)CCC3 (some centres not stated),-1.5,-76,-2,-6,1,2
CCOc1cc(Br)c(CC(=O)O)cc1OCC,0.0,16,1,-29,4,-3
COc1ccc(/C=N/NC(=O)c2c(C)nc3ccccn23)cc1[N+](=O)[O-],0.7,9,0,-8,-3,-1
CCC(=O)NS(=O)(=O)c1cccnc1Nc1ccccc1Cl,-2.5,-48,0,-11,-9,2
COc1ccc(C(C)NCCC(c2ccc(OC(C)C)cc2)c2ccccc2OC)cc1 (configuration not stated),7.1,15,-4,9,-1,2
CC(=O)NC(=S)Nc1ccc(NC(=O)c2cccnc2)cc1,-0.4,8,2,13,-10,2
CC(C)C(C(=O)N1CCOCC1)N1C(=O)c2ccccc2C1=O (configuration not stated),-0.7,19,0,-7,4,-5
O=S(=O)(Cc1ccccc1Cl)c1ncn[nH]1,1.3,17,1,1,-8,-7
CCCOc1ccc(-c2cn3ccccc3n2)cc1[N+](=O)[O-],-1.9,16,-3,45,22,7

# Whole records, looked up by structure:
# O=S(=O)(Cc1ccccc1Cl)c1ncn[nH]1 reads MPTP inh = 1.3; SENP8 block = 17; GRIN3A LBD mod = 1; PfGluPho inh = 1; ATG4B inhibitor = -8; HKDC1 inh = -7
# CC(C)C(C(=O)N1CCOCC1)N1C(=O)c2ccccc2C1=O (configuration not stated) reads MPTP inh = -0.7; SENP8 block = 19; GRIN3A LBD mod = 0; PfGluPho inh = -7; ATG4B inhibitor = 4; HKDC1 inh = -5
# CCC(=O)NS(=O)(=O)c1cccnc1Nc1ccccc1Cl reads MPTP inh = -2.5; SENP8 block = -48; GRIN3A LBD mod = 0; PfGluPho inh = -11; ATG4B inhibitor = -9; HKDC1 inh = 2

# Next structures:
SMILES,MPTP inh,SENP8 block,GRIN3A LBD mod,PfGluPho inh,ATG4B inhibitor,HKDC1 inh
COc1ccccc1N1C(=O)C2C(C(=O)c3ccccc3)=NN(c3ccccc3OC)C2C1=O (configuration not stated),4.3,23,6,-14,-9,0
Cc1[nH]c2ccccc2c1C(=O)C(=O)N1CCCc2ccccc21,0.5,27,-1,28,-4,-6
N/C(=N\O)c1ccccc1-n1cccc1,-2.0,10,1,-8,-11,-3
COc1ccc(/C=C/C(=O)NC(=S)N2CCCC(C(N)=O)C2)cc1 (configuration not stated),-1.1,12,0,-1,-3,-2
Cn1c(CC(=O)NNC(=O)c2cncc(Br)c2)nc2ccccc21,-2.9,12,0,-1,-20,-3
C/C(=N\NC(=O)c1ccc(NS(=O)(=O)c2cccs2)cc1)c1ccc2ccccc2c1,1.8,-64,6,-17,9,-4
Cc1nn(-c2ccccc2)c2[nH]c(=O)c(CNCCN3CCOCC3)cc12,-1.3,-106,3,-3,-3,-1
COc1ccc(CN2CCNC(=O)C2CC(=O)NCCC2=CCCCC2)cc1OC (configuration not stated),-0.1,1,-3,-9,0,-5
COc1cc(/C=C/c2nc3ccccc3c(=O)[nH]2)ccc1OC(F)F,0.3,-150,3,3,-5,-2
C/C(=N\NC(=O)CCC(=O)NCc1ccccc1)c1ccco1,-1.3,13,-3,-12,4,-5
CC1=CCC(C(=O)O)C(C(=O)Nc2nc3ccc(S(C)(=O)=O)cc3s2)C1 (configuration not stated),-1.3,12,-1,-16,2,-6
COCCCNC(=S)NCCCNc1nc2cc3c(cc2cc1C#N)OCO3,-2.4,-289,2,39,-9,9
CC1=C(C(=O)OCc2ccccc2)C(c2cccnc2)n2nnnc2N1 (configuration not stated),-0.1,25,1,61*,-7,2
CC1=NNC(=O)C1CCC(=O)N/N=C(/C)c1ccc([N+](=O)[O-])cc1 (configuration not stated),0.1,27,-2,-1,-5,-7
Cc1cc(C)c(C(N)=O)c(NC(=O)Nc2ccccc2Cl)n1,-1.6,-2,-1,-9,-1,1
O=C(Nc1nnc(CCN2CCCCC2)s1)c1ccc(Cl)cc1Cl,-0.1,14,-1,3,-7,-5
COc1cccc(NC(=O)c2ccc(NS(=O)(=O)c3cccs3)cc2)c1,-3.1,3,-3,-19,5,4
Cc1ccc2nc(Nc3ccccc3)c(C=O)c(=O)n2c1,1.1,25,2,2,0,-7
CC1(C)Cc2c(C#N)c(SCCOc3ccccc3)nc(N3CCOCC3)c2CO1,1.0,-35,3,2,-12,5
CCOc1ccc2nc(NCCNC(=S)NCCCN(C)C)c(C#N)cc2c1,1.5,-417,8,-12,6,-3
O=C1Nc2cc(C(=O)N3CCOCC3)ccc2S/C1=C\c1ccccc1,-1.0,-21,-1,8,-8,-2
Fc1cccc(Cl)c1CSc1ncn[nH]1,-0.8,3,-3,7,-4,-4
CN(C)CCN(C(=O)CN1C(=O)c2ccccc2C1=O)c1nc2cc3c(cc2s1)OCO3,0.4,6,-3,14,-11,-4
CC(C)[C@@H](C(=O)OCC(=O)c1ccc2c(c1)NC(=O)CO2)N1C(=O)c2ccccc2C1=O,0.2,-4,7,15,-7,-3
CCOC(=O)C1CCN(C(=O)CCCNC(=O)Cn2cnc3sc(C)c(C)c3c2=O)CC1,-2.1,11,0,9,-4,-2
c1ccc(C2C3=C(CCCC3)Nc3ncnn32)cc1 (configuration not stated),0.1,4,5,-17,0,-6
CC(=O)Nc1ccc(NC(=O)c2ccc(NS(=O)(=O)c3cc(C(C)(C)C)cc(C)c3C)cc2)cc1,-5.0,-12,26*,2,7,-7
CCOC(=O)C1CCN(C(=O)CCc2ccc(S(=O)(=O)NC(C)C)cc2)CC1,0.2,2,0,-7,-8,0
COc1ccccc1NC(=O)c1cnc(SCC(=O)NCCc2ccccc2)n(C)c1=O,-0.2,-53,1,-1,-4,-5
Cc1ccc(S(=O)(=O)CC(=O)c2cc3cccc(C)c3oc2=O)cc1,-0.6,-8,-2,-7,8,9
Cc1[nH]n2c(=O)c3c(nc2c1-c1ccccc1)CCC3,-1.4,-465,-3,-10,4,-1
COc1ccc(Cc2noc(-c3ccc([N+](=O)[O-])cc3)n2)cc1OC,10,12,-2,-1,2,-2
Cc1ccc2nc(NCc3ccccc3)c(C=NCc3cccnc3)c(=O)n2c1,2.6,-50,2,3,30,9
CCC(NS(=O)(=O)c1c(C)[nH]c(=O)[nH]c1=O)C12CC3CC(CC(C3)C1)C2 (configuration not stated),-7.3,6,-1,-12,-4,-1
CC(C)N(C(=O)/C=C/c1cccc([N+](=O)[O-])c1)C(C)C,-0.8,8,-1,-1,-5,-8
COc1ccc(CNS(=O)(=O)c2ccc(NC(=O)N3CCCCC3)cc2)cc1,0.1,2,2,1,-9,3
CCC(C)c1ccc(Nc2ncccc2C#N)cc1 (configuration not stated),19,-106,0,10,18,-3
CCOC(=O)c1c(-c2ccccc2)nnn1-c1nc(OCC)nc(N2CCCCC2)n1,-0.3,13,-1,-14,2,4
O=C(NCC1CCCO1)c1ccc2c(c1)C(=O)N(C1CCCCC1)C2=O (configuration not stated),8.9,19,1,-13,-10,1
COc1ccc(C(=O)Nc2nnc(-c3ccccc3)o2)cc1OC,-1.6,2,-11,-4,-12,2
Cc1cc(-c2csc(NC(=O)c3ccc(=O)[nH]c3)n2)c(C)n1Cc1ccco1,2.2,-22,-2,25,-6,2
CCOc1ccccc1NC(=O)c1cccc(N2C(=O)CCC2=O)c1,-0.1,0,0,-3,6,-4
O=C(NNC(=O)c1ccccc1-n1cccc1)c1ccccc1,-1.6,-2,-4,4,-3,-4
Cc1cc(C)c2c(CC(=O)NC3CCS(=O)(=O)C3)coc2c1 (configuration not stated),-1.6,3,-3,10,-2,-5
O=C(OCC(=O)N1CCCC1)c1cc(=O)c2ccccc2o1,-1.4,7,0,-24,-1,1
COc1ccc(C(=O)NC(=S)Nc2ccc(S(=O)(=O)Nc3cc(OC)ncn3)cc2)cc1,-1.9,9,-19,-12,-9,1
Cc1ccc(OCc2nnc(SCC(=O)Nc3cc(C)on3)n2C)cc1,0.5,15,-2,-11,2,-9
Cc1c(-c2ccccc2)[nH]n2c(=O)c3c(nc12)CCCC3,1.2,-218,1,18,-13,-1
CCOC(=O)c1cc2sc(C)cc2n1CC(=O)N1CCN(C(=O)c2ccco2)CC1,0.5,7,-2,23,-18,-11

# High-throughput results (PubChem)
